LANA-nucl inh = inhibitors of KSHV LANA binding to nucleosomes. FITC-LANA1-23 / chicken nucleosome fluorescence polarization; stronger effect = lower value. z-score (no concentration beside the values). 51,000 compounds, 0.3% hits. AID 720717;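 active means both repeat wells score below -2 in polarization z-score versus plate sample wells, excluding overly bright wells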;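 further: 100 nL library stock added to about 30 µL; numbers are from one replicate; some results filed as inactive read as strong as hits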
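test system = FITC-LANA peptide and chicken nucleosomes | amount = 240 nM purified chicken nucleosomes (480 nM peptide binding sites), final | reagent = 50 nM FITC-LANA1-23 probe | medium = TEN-BT buffer, pH 7.5 | doses = single compound addition by pin transfer, 100 nL per well | timing = 10–45 min, room temperature | detection = fluorescence polarization | repeats = duplicate plates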
BasE inh = inhibitors of Acinetobacter baumannii siderophore enzyme BasE; inhibition, % (no concentration beside the values); AID 485350; 84,000 compounds, 0.1% hits; purified BasE, fluorescence polarization binding displacement;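 active means both replicates above 25% with normal brightness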;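 further: 0% = negative plate control signal and 100% = positive plate control signal; stock transfer was 100 nL into about 30 µL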
The depositor's hits bear a star; · = not tested or not shown; & = joins results of further samples. A portion of the library. The share of hits here may be higher or lower than overall.

canonical_smiles | LANA-nucl inh | BasE inh
C=CCNCCOc1ccc(Cl)cc1C(C)(C)C | 0.76 | -3.1
N#Cc1c(NC(=O)COC(=O)c2cccs2)sc2c1CCC2 | -0.97 | -1.2
CC(=O)OCC1=C(C(=O)O)N2C(=O)[C@@H](NC(=O)Cc3cccs3)[C@H]2SC1 | 1.3&0.008&-0.32 | 0.8&1.8
CC1CCC(NC(=O)CCCn2sc3ccccc3c2=O)CC1 (configuration not stated) | -1.7 | 1.9
CCOC(=O)c1c(NC(=O)COC(=O)C2CC(=O)N(Cc3ccco3)C2)sc(C(=O)NC)c1C (configuration not stated) | · | 3.6
CC1CCN(C(=O)COc2ccc(-c3ccccc3)cc2)CC1 | -0.12 | 0.9
Cc1ccc(S(=O)(=O)N2CCN(C(=O)c3ccc(Br)o3)CC2)cc1 | · | -0.9
O=C(CN1C(=O)CCSc2ccccc21)Nc1ccccc1 | 0.68 | 0.4
N/C(=N\O)c1ccccc1-n1cccc1 | 0.34 | ·
Cc1oc2ncn3nc(CCn4c(C)nc5ccccc54)nc3c2c1C | · | -3.0
Cc1c(C2=NNC(O)(C(F)(F)F)C2)sc2ccccc12 (configuration not stated) | · | 0.4
CCN(C(=O)c1ccc(OC(C)C)cc1)C1CCS(=O)(=O)C1 (configuration not stated) | · | 0.3
COc1ccc(-c2ccc(CCC(=O)O)[nH]2)cc1 | 0.97 | -1.9
CCC(=O)c1c(O)cc(O)cc1O | -0.5 | -2.9
O=S(=O)(c1cccc(-c2nn(CN3CCc4ccccc4C3)c(=S)o2)c1)N1CCCCC1 | · | -1.6
CSc1ncc(C(=O)N2CCOCC2)n1-c1ccccc1 | · | -0.8
CCOc1ccc(Br)cc1S(=O)(=O)NC1=NCCCCC1 | · | 2.8
Cc1ccc2scc(N3CCOCC3)c(=O)c2c1 | 0.35 | 0.9
Cc1ccc(NC(=O)COC(=O)Cc2c(C)noc2C)cc1C | · | 0.9
O=C(N1CCOCC1)C(F)(F)C(F)(F)C(F)(F)F | -0.33 | 1.0
Cc1ccc(S(=O)(=O)N2Cc3ccccc3CC2C(=O)N2CCCCC2)cc1 (configuration not stated) | 0.077 | -1.0
CCC(Sc1nc2ncccc2o1)C(=O)N(Cc1ccccc1)C(C)C (configuration not stated) | 0.44 | -1.6
O=C(/C=C/c1ccco1)NCCSc1ncc(-c2ccc(F)cc2)[nH]1 | 0.49 | 0.7
O=C(NCCc1ccccc1)C1=CC=CN2CCS(=O)(=O)N=C12 | · | 0.0
CCCCN1CN(CCc2ccccc2)CC2=C1CC(C)(C)CC2=O | 0.045 | 1.6
O=C(/C=C/C(=O)N1CCCc2ccccc21)N1CCN(c2ccc(F)cc2)CC1 | · | -1.0
CCN1CCN(C(=O)c2nc(-c3ccc(C)cc3)n3c2CCCCC3)CC1 | -0.66 | 1.9
COCC(C)n1c(COc2ccccc2F)nnc1SCC(=O)c1ccc2c(c1)NC(=O)CO2 (configuration not stated) | · | -4.2
O=C(O)CN1CCc2ccccc2C1 | 0.04 | 0.4
CC(C)(C)CC(C)(C)N1CNC(=S)NC1 | · | 5.9
COc1ccc(OC)c(NC(=O)CSc2nnc(NC(=O)C3CC3)s2)c1 | -1.1 | 0.2
CC1CCCC(C)N1C(=O)CSc1ncccn1 (configuration not stated) | · | 3.7
COC(=O)CN(C)S(=O)(=O)c1c(C)cc(C)cc1C | 0.28 | 2.1
Cc1ccc(CNC(=O)c2cc3c(=O)[nH]c4ccccc4c3n2C)cc1 | -1.3 | -0.7
CCn1nc(CC(=O)Nc2nnc(CC(=O)N3CCCC3)s2)c2ccccc2c1=O | -0.69 | -2.8
O=c1cc(-c2ccncc2)oc2ccccc12 | 0.099 | 2.4
Cc1ccc(/C=C/C(=O)OC(C)C(=O)Nc2ncc(Cl)cc2Cl)o1 (configuration not stated) | · | 2.4
CCOc1cc2c(cc1CNC(CN1CCOCC1)c1ccc(C)cc1)OC(C)C2 (configuration not stated) | · | -1.5
CCN(C1=NS(=O)(=O)c2ccccc21)N(CC)S(=O)(=O)c1ccc(C)cc1 | · | -0.9
COC(=O)c1cc(-c2ccc(OC)c(OC)c2)nc2c1cnn2C(C)C | · | 1.3

One compound at a time, from the list above:
CCN(C1=NS(=O)(=O)c2ccccc21)N(CC)S(=O)(=O)c1ccc(C)cc1 as listed: LANA-nucl inh: ·; BasE inh: -0.9
COC(=O)c1cc(-c2ccc(OC)c(OC)c2)nc2c1cnn2C(C)C as listed: LANA-nucl inh: ·; BasE inh: 1.3
CCOc1cc2c(cc1CNC(CN1CCOCC1)c1ccc(C)cc1)OC(C)C2 (configuration not stated) as listed: LANA-nucl inh: ·; BasE inh: -1.5

Next part:
canonical_smiles | LANA-nucl inh | BasE inh
COc1ccc(NC(=O)COC(=O)c2nn(C)c(=O)c3ccccc23)cc1 | · | -0.4
O=C(Cn1cnc2ccccc21)N/N=C/c1ccccc1 | · | 8.2
COc1ccc2c(C(F)(F)F)cc(SCC(=O)N3CCCC3)nc2c1 | 0.99 | -3.8
CSc1cccc(NC(=O)CCSc2ccccc2)c1 | -0.53 | -2.5
CCC(=O)[C@@]1(C)[C@H](C)C[C@H]2[C@@H]3CCC4=CC(=O)C=C[C@]4(C)[C@H]3[C@@H](O)C[C@@]21C | -0.61 | -2.0
COc1cc(-c2nn3cc(-c4ccccc4)nc3s2)cc(OC)c1OC | -0.45 | 0.8
CC(OC(=O)c1ccc(NC(=O)CC#N)cc1)C(=O)Nc1ccccc1 (configuration not stated) | · | 0.8
CCN(CC)C(=O)Cn1cnc2sc(C(=O)N3CCN(c4ccc(F)cc4)CC3)c(C)c2c1=O | · | 0.4
O=C(CN1CCOCC1)Nc1ccccc1 | -0.23 | 1.3
Cc1ccc(S(=O)(=O)Cc2csc(N)n2)cc1 | -0.004 | -0.3
O=C(CCSc1ccc(F)cc1)NNc1ccc(C(=O)O)cc1 | · | -0.9
CC(C)n1c(O)c(N=NC(=O)Cc2csc(N3CCOCC3)n2)c2ccccc21 | · | 3.3
Cc1cccn2c(=O)c(/C=C(\C#N)C(=O)N3CCOCC3)c(Oc3ccccc3)nc12 | -0.81 | 2.1
CCCCN(CC)c1cn[nH]c(=O)c1Cl | · | 1.0
CCOC(=O)C1CCN(C(=O)Cn2cc(C(F)(F)F)cc(Cl)c2=O)CC1 | · | 0.0
O=c1c2ccccc2[nH]c(=S)n1C1CCCC1 | 0.31 | 0.9

Some values from the entries so far:
Value for `O=c1c2ccccc2[nH]c(=S)n1C1CCCC1` in BasE inh: 0.9
Value for `CCOC(=O)C1CCN(C(=O)Cn2cc(C(F)(F)F)cc(Cl)c2=O)CC1` in BasE inh: 0.0

More results:
canonical_smiles | LANA-nucl inh | BasE inh
C=CCn1c(C(=O)OCC)cc2oc(C)cc21 | 1.6 | -3.6
CC(OC(=O)C12CC3CC(CC(O)(C3)C1)C2)C(=O)N1CCCc2ccccc21 (configuration not stated) | · | -0.7
c1ccc(-c2nc3ccccc3[nH]2)cc1 | · | -0.3
CC(C)n1c(=N)c(C(=O)NC2CCCC2)cc2c(=O)n3ccccc3nc21 | 0.083 | -5.8
CCCCOC(=O)c1cc(O)c(O)c(O)c1 | -0.73 | 2.1
CN/N=C/c1cc2cc(OC)ccc2nc1Cl | · | 1.0
Oc1ccccc1-c1cc(C(F)(F)F)nc(-c2ccccc2)n1 | -0.16 | -1.8
N#Cc1nc(NC(=O)c2cc(-c3cccs3)nc3ccccc23)[nH]c1C#N | · | 4.1
CC(=O)NC12CC3CC(C1)CC(C(=O)OCC(=O)Nc1ncc(Cl)c(C)c1Cl)(C3)C2 | · | -1.9
O=C(CSc1ccccn1)Nc1c(C(=O)C2CC2)oc2ccccc12 | -0.34 | -0.5
Cc1cc(C)nc(NOCc2ccccc2)n1 | 0.89 | -0.8
CCCNC(=O)CSc1nccn1Cc1ccco1 | 0.51 | -0.1
O=C(Cc1cccc2ccccc12)NC1CC1 | -0.78 | 2.2
CNC(=O)Oc1ccc2c(c1)[C@]1(C)CCN(C)C1N2C (some centres not stated) | -0.1 | ·
CCOc1ccc2nc(NCCNC(=O)Nc3cccc(Cl)c3)c(C#N)cc2c1 | 0.18 | -0.2
NS(=O)(=O)c1ccc(CNC(=O)c2ccccc2)s1 | 0.85 | 3.5
Cc1cc(C)c2c(-n3cccc3)nn(CC(=O)NC3CC3)c2n1 | 0.9 | -1.6
CN(C)c1ccc(-c2nc3c4ccccc4c4ccccc4c3n2C)cc1 | · | 1.3
O=C(/C=C/c1ccco1)OCC1CCCN2CCCCC12 (configuration not stated) | -0.38 | -1.5
Cc1cc(C)nc(/N=C(/NC(=O)c2ccccc2)N2CCC(C(N)=O)CC2)n1 | · | -1.4
Cn1c(=O)cc(OCC(=O)NCc2cccs2)c2ccccc21 | -0.86 | 1.0
C=CCN1C(=O)S/C(=C\c2ccc(OCC(=O)OC)cc2)C1=O | 0.33 | 0.7
O=S(=O)(Nc1nc2ccccc2nc1Cl)c1ccccc1 | · | 1.5
O=C(CSc1ncccc1C(=O)NCC1COc2ccccc2O1)Nc1ccc2c(c1)OCO2 (configuration not stated) | · | -2.9
C(=NC1=NN(c2ccccc2)CC1)N1CCCCC1 | · | 2.9
CN(C1CCCCC1)S(=O)(=O)c1ccccc1NC=C(C#N)C#N | · | 2.0
O=C(c1c[nH]c2c(F)cccc2c1=O)N1CCNCC1 | -0.016 | 2.3
Cc1nnsc1-c1nc(-c2ccc(Cl)s2)cs1 | · | 2.1
CC(C)c1cc(NC2CCCC2)n2c(nc3ccccc32)c1C#N | -0.57 | 2.0
O=C(Cn1c(=O)oc2ccccc21)OCC(=O)N(C1=CCCCC1)C1CC1 | · | 0.1
O=C(Nc1ccccc1)C1CCCCC1 | · | 0.8
COc1cccc(-c2cc(C(=O)Nc3sc4c(c3C#N)CCC(C(C)(C)C)C4)no2)c1 (configuration not stated) | -0.7 | 1.5
CCN(c1cccc(C)c1)S(=O)(=O)c1ccc(OC)cc1 | -0.066 | 3.9
Cc1nc(CNCc2ccc(CN(C)C)cc2)cs1 | · | 0.6
O=C1OC2CC3CC2C1C3C(=O)N1CCc2ccccc21 (configuration not stated) | 0.45 | -1.5
CN1CCN(c2ccc(CNC(=O)c3cccnc3Oc3ccc(Cl)cc3)cc2)CC1 | · | 1.0
COc1ccccc1N1CCN(C(=O)c2ccc(S(=O)(=O)N3CCCCC3)cc2)CC1 | -0.44 | -1.1
CCOc1cccc(CNc2ccc(N3CCCC3)cc2)c1 | 2.1 | -2.4
O=C(COC(=O)/C=C/c1ccc(Br)o1)Nc1cccc2nsnc12 | · | 1.1
CC(Sc1nnc(C2CC2)n1C1CC1)C(=O)c1c[nH]c2ccccc12 (configuration not stated) | · | -1.2
Cc1cc(C(=O)N2CCN(S(=O)(=O)c3ccccc3)CC2)no1 | · | 0.3
CCOC(=O)c1cc(-c2csc(Nc3ccc(C)cc3)n2)on1 | 0.27 | 1.6
COc1ccc(OC)c(CCNC(=O)c2sc(-n3cccc3)nc2C)c1 | 0.16 | 1.7
CC(C)(C)c1ccc(Cn2c(CO)cc3sccc32)cc1 | -0.82 | -1.6
N#CC(C(=O)CSc1nc2ccccc2[nH]1)c1ccccc1 (configuration not stated) | · | 5.7
Cn1c2ccc(Cl)cc2c2nc3ccccc3nc21 | -0.72 | 4.2
Nc1cccc(CCc2ccncc2)c1 | 0.63 | 2.2
O=C(O)CNC(=O)c1nc2ncccn2n1 | 1.1 | -1.6
CCCN1C=C(C(=O)OC)C(c2cccc(Cl)c2)C(C(=O)OC)=C1 | 0.61 | 1.8
CC(C)CCn1nnnc1CN1CCN(Cc2ccc3c(c2)OCO3)CC1 | 0.23 | 0.8
NC(=O)C1CCCN1S(=O)(=O)c1ccc2ccccc2c1 (configuration not stated) | -1 | 0.7
C/C(=C\C(=O)C(F)(F)F)NC1CCCCC1 | · | -1.1
CC1(C)CN(c2cccc(N3CC(C)(C)C3=O)n2)C1=O | -0.62 | ·
O=C(COc1ccc(Cl)cc1)N/N=C\c1cn(CC(=O)N2CCOCC2)c2ccccc12 | 0.36 | 2.5
Nc1ccc2c(c1)C/C(=C/c1ccco1)C2=O | · | 15
O=C(CO/N=C/c1ccccc1OC(F)F)N1CCN(C(=O)c2ccco2)CC1 | · | 2.8

Later entries.
canonical_smiles | LANA-nucl inh | BasE inh
CC(C)(C)NS(=O)(=O)c1cccc2c(N)cccc12 | 0.23 | 1.0
O=C(CC1NC(=O)NC1=O)NC1(C(=O)NC2CCCC2)CCCCC1 (configuration not stated) | 0.22 | 2.2
CN/N=C(\Cc1nc2ccccc2[nH]1)c1ccccc1 | · | 1.7
O=C(O)CCS(=O)(=O)Nc1ccccc1 | · | -0.5
Cn1nc(C(=O)OC2CCCCC2=O)c2ccccc2c1=O (configuration not stated) | · | 0.5
CCOC(=O)c1ccc(CNC(=O)CSc2nnc(-c3ccc(OC)cc3)o2)cc1 | 0.13 | -2.9
N#Cc1ccccc1S(=O)(=O)N1CCN(C(=O)c2cc(C3CC3)nn2-c2ccccc2)CC1 | · | 2.0
CC1(C)CC(=O)C2=C(C1)OC(N)=C(C#N)C2c1cn(Cc2cccc(F)c2)c2ccccc12 (configuration not stated) | -1.5 | -0.6
CCc1cccc(-n2c(=O)c3cccnc3n2CC(=O)Nc2ccccc2OC)c1 | · | 0.1
CCc1ccc(C=Nc2ccc(O)cc2)s1 | -0.71 | 2.2
Cc1coc2cc3oc(=O)c(CCC(=O)NCc4ccccc4)c(C)c3cc12 | 0.15 | -0.1
Cc1cccc(-n2c(=O)c3c4c(sc3n3c(=S)[nH]nc23)CCC4)c1 | -0.45 | 2.8
